Abeta yeast res: A-beta toxicity reversal in yeast | hit rate 0.063% among 410,000 | AID 1347071 | Potency, µM (series often up to 46.1 µM), without a hit: top-dose growth rescue, hits mostly activators | yeast expressing A-beta42, growth rescue, OD600, 48 h; response scale: 0% DMSO, 100% iron-clioquinol control; note: potency is the fitted concentration of half-maximal effect; nearly all actives have a fitted effect of over 55% in size
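Yeast A-beta toxicity model in growth medium with pinned compounds, 48 h at 30 C; growth read as absorbance at 600 nm. Normalized to FeCl3/clioquinol equimolar mix (positive) and DMSO (negative).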
aSyn rescue: inhibitors of alpha-synuclein toxicity in yeast; Potency, µM (series often up to 46.1 µM), without a hit: at the top dose growth rescue (activation), actives largely listed as activators; Yeast expressing alpha-synuclein, growth rescue, BacTiter-Glo, 24 h; AID 652106; hit rate 0.14% among 370,000; note: potency is the fitted concentration of half-maximal effect; % of control where 0% means no effect; nearly all actives have a fitted effect of over 65% in size
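Rescue of yeast growth: cells expressing toxic alpha-synuclein, induced in galactose at OD600 0.02, incubated with compound 24 h at 30 C. ATP luminescence quantified growth; inhibitors of toxicity appear as activators.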
GLP1R inv ag: GLP-1 receptor (human) inverse agonism; Potency, µM (doses to about 38.3 µM), for inactives: top-dose activity change, negative = inhibition, most hits filed as inhibitors; hit rate 1.6% among 410,000; AID 624417; HEK293 GLP-1R CRE-luciferase, luminescence, 24 h; GLP-1R form is constitutively active; note: potency is the fitted concentration of half-maximal effect; % is set by controls: 0 for no effect and ±100 for the full control effect; nearly all actives have a fitted effect of over 55% in size
Target sequence (P43220 whole entry, looked up): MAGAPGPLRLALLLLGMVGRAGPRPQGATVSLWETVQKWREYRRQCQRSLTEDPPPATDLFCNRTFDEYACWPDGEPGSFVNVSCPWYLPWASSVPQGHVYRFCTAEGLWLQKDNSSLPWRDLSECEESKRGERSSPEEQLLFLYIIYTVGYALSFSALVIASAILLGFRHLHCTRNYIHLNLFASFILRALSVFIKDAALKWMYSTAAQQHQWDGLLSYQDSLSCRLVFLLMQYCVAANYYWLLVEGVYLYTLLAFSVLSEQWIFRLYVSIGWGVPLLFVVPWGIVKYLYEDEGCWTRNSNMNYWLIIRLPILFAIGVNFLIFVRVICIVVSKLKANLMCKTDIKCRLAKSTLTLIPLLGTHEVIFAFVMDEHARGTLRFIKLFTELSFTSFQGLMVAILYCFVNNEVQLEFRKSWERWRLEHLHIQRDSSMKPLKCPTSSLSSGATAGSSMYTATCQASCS
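Stable HEK293 clone (constitutively active GLP-1R + cAMP-response luciferase); 200 cells/uL plated, 12 h pre-culture, compound 24 hr, 37 deg C/5% CO2; detection reagent 12 min RT; luminescence.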
DRD3 antagonist: D3 dopamine receptor (human) antagonism; D3R cells, DiscoveRx beta-arrestin luminescence, antagonist mode; hits give low values; P35462; max response, negative = inhibition, %; hit rate 2.5% among 360,000; in the data active = max response below about -50%; inconclusive = no clear call, values can overlap the other calls; note: % is set by controls: 0 for no effect and ±100 for the full control effect; mostly tested at two doses, the higher about 12 µM
Target sequence (P35462 whole entry, looked up): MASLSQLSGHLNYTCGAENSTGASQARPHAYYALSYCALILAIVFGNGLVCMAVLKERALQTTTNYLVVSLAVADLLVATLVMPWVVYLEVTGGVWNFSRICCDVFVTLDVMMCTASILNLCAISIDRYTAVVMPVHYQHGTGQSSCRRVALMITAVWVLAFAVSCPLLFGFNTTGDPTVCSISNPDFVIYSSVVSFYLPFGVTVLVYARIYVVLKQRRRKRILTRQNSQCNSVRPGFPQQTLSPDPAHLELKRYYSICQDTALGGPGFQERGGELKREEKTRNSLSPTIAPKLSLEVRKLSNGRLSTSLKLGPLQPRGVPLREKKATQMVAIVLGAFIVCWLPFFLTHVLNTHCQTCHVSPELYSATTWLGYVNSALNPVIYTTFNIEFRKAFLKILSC
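Cells expressing the human receptor were seeded at 1500 cells/well, incubated overnight at 37 degrees C in 5% CO2, then exposed to library compounds with dopamine controls for 90 minutes at 37 degrees C before luminescent detection.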
Akt phos inh: Akt phosphorylation inhibition. hit rate 0.32% among 360,000. Neuro2A IGF-stimulated pAkt S473 HTRF, 20 min; hits give low values. activity change, % for hits at 50 µM. AID 651550; in the data active = activity change below about -80%; inconclusive = mostly about -51% to -80%; note: % is set by controls: 0 for no effect and ±100 for the full control effect
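Neuro2A cells in DMEM with 0.5% FBS, overnight at 37 deg C, given compound at single 50 µM final, then IGF (6 nM final) for 20 min at 37 deg C. Lysed; phospho-Akt Ser473 by HTRF after 24 h, 665/615 ratio.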
TDP-43 yeast inh: rescues yeast growth from TDP-43 toxicity; hit rate 1.8% among 410,000; AID 652104; TDP-43 expressing yeast growth rescue, BacTiter-Glo, 24 h; Potency, µM (top dose mostly 46.1 µM), inactives show at the top dose growth rescue (activation), most hits filed as activators; note: potency is the fitted concentration of half-maximal effect; % of control where 0% means no effect; nearly all actives have a fitted effect of over 50% in size
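Yeast expressing TDP-43 (pregrown in raffinose, seeded at OD600=0.02 in galactose medium) exposed to compounds 24 hr at 30 deg C. Growth read by BacTiter-Glo luminescence; rescue of toxicity appears as increased signal.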
GLP-1R agonist: activates the human GLP-1 receptor; P43220; HEK293 GLP-1R CRE-luciferase, luminescence, 4-6 h; cells express a hypersensitive GLP-1R form; Potency, µM (doses to about 45.6 µM), without a hit: at the top dose activation, hits mostly activators; hit rate 0.007% among 380,000; note: potency is the fitted concentration of half-maximal effect; % of control where 0% means no effect
FUS suppressor: rescues growth of FUS-expressing yeast; S. cerevisiae FUS-expressing, growth rescue, OD600, 24 h; Potency, µM (series often up to 76.6 µM), for inactives: at the top dose growth rescue (activation), hits mostly activators; hit rate 0.24% among 390,000; AID 1347120;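 note: potency is the fitted concentration of half-maximal effect; plate controls were DMSO vehicle for no effect and reference control for full effect; nearly all actives have a fitted effect of over 55% in size; some results filed as inactive show a strong effect at the top dose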
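Galactose (2%) drives FUS expression in yeast precultured in raffinose; seeding density OD 0.005. Test compounds incubated 24hr at 30C and 99% humidity before absorbance at 600 nm was measured.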
The depositor's hits bear a star; i = inactive; ? = inconclusive; nt = no result given; [ ] = another dose, or the depositor's remark. Unless noted, calls come from the whole dose curve; as a rule, active = well fitted curve in the direction sought with a large enough effect; inconclusive = small, poorly fitted or top-dose-only effect, or another doubt; inactive = no such curve, though single readings can be large; an effect the other way counts as inactive or inconclusive. These rows are one share of the data; count on the stated rates, not on these rows.

SMILES	Abeta yeast res	aSyn rescue	GLP1R inv ag	DRD3 antagonist	Akt phos inh	TDP-43 yeast inh	GLP-1R agonist	FUS suppressor
COc1ccc(-c2cc3ccccc3oc2=O)cc1NC(=O)c1cccnc1	2.1%	-0.1%	1.3%	30.8	i	-20.4%	2.7%	12.9%
COc1ccc(N(CC(=O)N2CCN(Cc3ccccc3)CC2)S(=O)(=O)c2ccccc2)cc1	-7.3%	3.5%	-17.1%	-6.7	i	1.8%	14.3%	9.0%
O=S(=O)(NCc1cccnc1)c1ccc(Cl)s1	-3.5%	2.5%	22.0%	19.3	i	-1.8%	1.7%	27.2%
Cc1cccc(NC(=O)c2sc(-n3nc(C)c(CCC(C)C)c3C)nc2C)c1	17.9%	nt	15.5%	nt	nt	8.3%	nt	5.9%
Nc1cc(=O)nc(SCC(=O)Nc2ccccc2Cl)n1-c1ccccc1	-1.9%	-0.7%	-17.8%	7.9	i	17.5%	9.3%	-2.2%
COC(=O)C1=NN(c2ccc(Cl)cc2)C2C(=O)N(c3ccccc3OC)C(=O)C12 (configuration not stated)	10.0%	-7.6%	17.0%	-29.3	i	4.3%	-32.7%[inhibitor]	nt
C[C@H](NC(=O)c1nc[nH]c1C(=O)N(C)Cc1ccccc1)C(=O)OC(C)(C)C	1.2%	-1.3%	2.5%	5.0	i	?	-0.9%	9.7%
O=C(/C=C/NNC(=O)c1cccc(Br)c1)c1cccc(Br)c1	27.8%	10.8%	?	-10.3	i	5.1%	1.1%	29.6%
CC1(C)Cc2nc(-c3ccccc3)nc(SCC(=O)N3CCCC3)c2CO1	-12.7%	2.2%	-0.6%	11.8	i	16.8%	10.6%	-1.9%
CC1CN(C(=S)Nc2ccccc2C(F)(F)F)CC(C)O1 (configuration not stated)	5.7%	4.7%	-0.2%	0.5	i	9.7%	0.4%	0.0%
COC(=O)CCCNC(=O)c1ccccn1	-11.7%	-8.1%	16.4%	-26.5	i	-24.8%	0.7%	7.8%
CCCCCSc1nnc2c(n1)[nH]c1c(C)cccc12	1.5%	nt	-4.6%	nt	nt	21.6%	nt	1.0%
CN1CCN(CCC(=O)Nc2ccc(F)c(F)c2)CC1	8.9%	-7.7%	0.0%	-12.6	i	15.7%	0.2%	12.3%
COc1ccccc1C(=O)NC(CCSC)C(=O)NCC(c1ccco1)N(C)C (configuration not stated)	-2.9%	0.7%	1.0%	-67.1*	i	3.2%	-7.8%	32.2%
CCOCCCNC(=O)NC(CCC(C)C)c1c(-n2cccc2)sc2c1CCN(C)C2 (configuration not stated)	-20.2%	nt	3.3%	nt	nt	-2.1%	nt	41.9%
O=C(CSc1cn(CCNC(=O)c2ccccc2F)c2ccccc12)Nc1ccccc1F	-14.6%	nt	-13.7%	nt	nt	22.2%	-0.4%	1.4%
CC(=O)Nc1nnc(CCN2CCCCC2)s1	10.9%	2.4%	9.8%	6.3	i	0.0%	-6.3%	25.4%
NCCCCCc1nnc(SCc2ccccc2Cl)o1	-1.1%	-0.1%	0.0%	0.0	i	-8.5%	1.3%	8.2%
CCOC(=O)C1CCCN(C(=S)NC(=O)/C=C/c2ccc(F)cc2)C1 (configuration not stated)	-9.8%	-10.8%	?	?	i	0.8%	6.8%	6.8%
Clc1cccc(NCc2nnc(SCc3ccc(Cl)cc3Cl)o2)c1	6.0%	20.0%	?	-63.4*	nt	?	-17.0%	?
CC1CCN(CCCNC(=O)CCCNC(=O)Cn2cnc3sc4c(c3c2=O)CCCC4)CC1	-6.2%	-1.3%	5.0%	-11.4	i	-2.0%	-0.7%	28.2%
COc1cccc(/C=C/C(=O)OCC(=O)c2ccc3c(c2)NC(=O)CO3)c1OC	-19.4%	-0.2%	10.4%	-3.3	i	7.6%	5.5%	-10.0%
Cc1ccc2[nH]c(=O)c(C(c3nnnn3Cc3ccccc3)N3CCc4ccccc43)cc2c1 (configuration not stated)	1.1%	12.2%	0.0%	10.1	i	0.0%	0.6%	39.9%
CCN(CC)C(=O)CSC(Nc1cccc(F)c1)=C(C#N)C#N	4.9%	6.4%	14.5%	9.9	i	-3.2%	-0.1%	19.6%
Cc1nc(Sc2cccn2C)c(C(F)(F)F)c(=O)[nH]1	1.3%	-2.0%	5.3%	11.0	i	4.5%	9.4%	10.2%
FC(F)(F)c1ccccc1NC(=S)N1CCCC1	-1.8%	-3.1%	1.9%	2.3	i	-30.8%	3.8%	12.7%
CC(C)CNc1ncnc2c1nnn2C	-20.5%	nt	31.5%[activator]	nt	nt	12.5%	nt	0.8%
COc1ccc(/C=N/NS(=O)(=O)c2ccc(C)cc2)cc1OC(=O)c1ccccc1	-3.9%	-13.1%	?	-9.6	i	-10.4%	-11.6%	5.2%
CC1=C(C(=O)Nc2ccccc2)C(c2cccnc2)n2ncnc2N1 (configuration not stated)	-11.2%	-1.6%	13.4%	-1.2	i	1.1%	6.1%	-13.6%
O=C(CNC(=O)c1ccc(Oc2ccccc2)cc1)OCc1ccc(Br)cc1	6.3%	-2.0%	0.0%	-16.3	i	-3.4%	3.4%	nt
CCc1sc(C(=O)NC2CCN(C)CC2)cc1Br	0.0%	2.2%	10µM*	-9.5	i	-35.3%[inhibitor]	-3.1%	nt
CCCN(CCC)CCCNC(=O)CS(=O)Cc1nc(-c2ccc(OC)c(OC)c2)oc1C (configuration not stated)	-15.5%	-5.5%	5.8%	?	i	-9.4%	-0.1%	14.9%
COc1ccc(NC(=O)c2ccc(COCC(F)(F)F)cc2)cc1OC	-2.5%	-12.1%	1.2%	-3.4	i	0.0%	13.5%	nt
Cc1ncccc1C(=O)N1CCCC(CNC(=O)C2(c3ccc(Cl)cc3)CC2)C1 (configuration not stated)	-2.6%	11.3%	-16.0%	0.0	i	17.4%	18.8%	5.2%
COc1ccc(C2/C(=C(/O)c3ccc(F)cc3)C(=O)C(=O)N2CCCN2CCOCC2)cc1OC (configuration not stated)	-2.2%	0.7%	11.5%	1.8	i	-5.5%	-7.0%	-16.8%
COc1ccc(C=CC(C)=NNC(=O)c2ccncc2)cc1	-8.4%	5.4%	?	-7.3	i	1.7%	1.3%	8.0%
COc1cc(S(=O)(=O)NCc2ccc3c(c2)OCO3)c(OC)cc1C	8.3%	7.5%	3.1%	-5.8	i	?	-0.8%	9.5%
CC1=CC(C)(C)N2C(=O)C3(SCC(=O)N3c3ccc(F)cc3)c3cc(C)cc1c32 (configuration not stated)	-25.7%	-1.0%	0.0%	?	?	0.0%	6.9%	19.2%
CCc1ccc(NCc2cc3c(C)nn(-c4ccccc4)c3[nH]c2=O)cc1	-17.5%	-0.4%	?	-28.2	i	-39.6%[inhibitor]	1.2%	30.2%
COc1cc2c(cc1OC)-c1cc(N3CCCCCC3)nc(=O)n1CC2	9.5%	-1.5%	330.0%[activator]	7.0	i	-12.9%	?	-0.4%
O=C(CN(CC1CCCO1)C(=O)CNS(=O)(=O)c1ccc(Cl)cc1)NCCc1ccccc1 (configuration not stated)	-23.8%	-4.4%	0.0%	-12.2	i	-16.4%	2.3%	11.0%
Cc1cc(C)cc(N(CC(=O)NC2CC3CCC2C3)S(C)(=O)=O)c1 (configuration not stated)	-5.3%	-1.6%	0.5%	-7.9	i	-7.5%	-1.8%	25.2%
Cn1c(SCc2cccc(F)c2)nnc1-c1ccncc1	2.6%	1.9%	6.0%	5.8	i	1.6%	6.8%	22.5%
COc1cc2nc(NCc3ccc(C)cc3)n3nc(-c4ccccc4)nc3c2cc1OC	-24.5%	nt	-12.4%	nt	nt	-11.6%	nt	-0.2%
N#Cc1c2n(c3c(=O)[nH]cnc13)CCCC2	-2.2%	-6.7%	9.1%	5.6	i	-5.2%	5.2%	6.3%
Cc1cccc(-c2nc3c4ccccc4nc(NCCc4ccccc4)n3n2)c1	-16.2%	nt	4.3%	nt	nt	2.7%	nt	15.5%
Clc1nn2cnnc2c2ccccc12	13.7%	7.9%	23.8%	17.6	i	20.4%	34.9%	-40.5%
CN1CCNC(=O)C1CC(=O)NCCc1ccccc1F (configuration not stated)	0.0%	2.4%	2.3%	7.6	i	-4.5%	3.7%	2.5%
Cc1nc(-n2nc(C)c(CCC(C)C)c2C)sc1C(=O)Nc1cccc(Cl)c1	1.4%	nt	-23.6%	nt	nt	-7.5%	nt	-21.7%
O=c1c(NCCc2ccccc2)c(-c2ccccc2)c1=O	-8.6%	1.7%	-3.7%	5.3	i	-1.0%	11.0%	-1.1%

Gathered by group: the entries above with a CF3 group
SMILES	Abeta yeast res	aSyn rescue	GLP1R inv ag	DRD3 antagonist	Akt phos inh	TDP-43 yeast inh	GLP-1R agonist	FUS suppressor
CC1CN(C(=S)Nc2ccccc2C(F)(F)F)CC(C)O1 (configuration not stated)	5.7%	4.7%	-0.2%	0.5	i	9.7%	0.4%	0.0%
Cc1nc(Sc2cccn2C)c(C(F)(F)F)c(=O)[nH]1	1.3%	-2.0%	5.3%	11.0	i	4.5%	9.4%	10.2%
FC(F)(F)c1ccccc1NC(=S)N1CCCC1	-1.8%	-3.1%	1.9%	2.3	i	-30.8%	3.8%	12.7%
COc1ccc(NC(=O)c2ccc(COCC(F)(F)F)cc2)cc1OC	-2.5%	-12.1%	1.2%	-3.4	i	0.0%	13.5%	nt

New compounds follow.
SMILES	Abeta yeast res	aSyn rescue	GLP1R inv ag	DRD3 antagonist	Akt phos inh	TDP-43 yeast inh	GLP-1R agonist	FUS suppressor
COc1ccc(NC(=O)CSc2ncn(-c3ccccc3)n2)cc1Cl	-4.5%	2.1%	4.3%	-13.8	i	2.1%	20.4%	?
Cc1cccc(NC(=O)CCS(=O)(=O)c2ccc3c(c2)NC(=O)CS3)n1	1.4%	-10.0%	-10.0%	0.4	i	11.8%	-2.2%	?
CCOc1c(Cl)cc(Cl)cc1CNCCSc1nnnn1C	-10.9%	nt	-4.5%	nt	nt	5.1%	1.7%	-9.6%
CCN(CC)C(=O)CSC(Nc1ccc(F)cc1)=C(C#N)C#N	4.9%	0.3%	21.8%	15.3	i	-3.3%[1.82 µM]	4.3%	16.4%
COC(=O)c1cc(NC(=O)c2c(Cl)cnn2C)cc(C(=O)OC)c1	-3.4%	-10.2%	9.5%	3.8	i	7.4%	1.5%	nt
COc1ccc(-c2nc(CS(=O)CC(=O)NC3CCCC3)c(C)o2)cc1 (configuration not stated)	1.0%	2.8%	11.2%	6.9	i	3.2%	-2.5%	-2.7%

Screens from PubChem.
